# ugtP null kill: growth inhibition of S. aureus ugtP deletion strain. S. aureus RN4220 ugtP deletion, OD600 growth, 16 h; some inactives read as strong as hits. growth inhibition, % (test concentration not listed). 330,000 compounds, 0.54% hits. AID 1259309;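 active = z-score under -3 and OD600 up to 0.15 on both plates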;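 note: plate controls were untreated wells for no effect and antibiotic for full effect; wells of about 80 µL received 100 nL stock; the first replicate is given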
# PrP 5UTR inh: suppresses PrP 5' UTR mRNA reporter expression. 340,000 compounds, 0.35% hits. AID 488862. cell-based PrP 5' UTR mRNA reporter, plate reader. inhibition, % (no concentration beside the values);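 active = every replicate at 50% or more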;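 note: 0 = median of the neutral control wells; tested in H4 reporter cells; numbers are from one replicate; inactives centre near -14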
# RN4220 kill: kills Staphylococcus aureus RN4220 | S. aureus RN4220 growth, OD600, 16 h | inhibition, % (no concentration beside the values) | 330,000 compounds, 0.33% hits | AID 1259311;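 active = z-score of -3 or lower and OD600 up to 0.18 on both plates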;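 note: plate controls were untreated cells for no effect and reference antibiotic for full effect; stock transfer was 100 nL into about 80 µL; one replicate is shown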
# Bead autofluor: compound fluorescence in toxin protease inhibitor counterscreen. compound autofluorescence counterscreen, microsphere flow cytometry; hits give high values. fluorescence intensity (test concentration not listed). 360,000 compounds, 3.1% hits;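 active = at least 3 SD above the mean of all compounds, about 16000 in these data; inconclusive = too few beads counted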;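 note: 100 nL of 1 mM stock went into each well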
# BJeLR viability: kills HRASV12-expressing BJeLR cells; BJeLR (HRASV12) viability, CellTiter-Glo ATP luminescence, 48 h; reference of the scale not given here; inhibition, % (test concentration not listed); 300,000 compounds, 0.17% hits; AID 1554;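 active = replicate mean above 50%; inconclusive = above 50% but judged a plate artefact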;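 note: 50 nL library stock added to about 25 µL; numbers are from one replicate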
# Mtb hypoxia rep: Mtb hypoxia fluorescent reporter inhibition. fluorescence inhibition, % (no concentration beside the values). AID 1159583. M. tuberculosis hypoxia-regulated fluorescent reporter, fluorescence. 300,000 compounds, 0.1% hits;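 active = 35 to 45% if threefold the growth effect, above 45% if 1.5-fold the growth effect; inactive = the rest, general growth blockers included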;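 note: wells of about 50 µL received 100 nL stock; 0% = vehicle wells and 100% = reference inhibitor wells; whole bacteria with a GFP reporter of the hypoxia response; strong numbers were not always called active; many hits fall short of the cut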
# Mtb hypoxia rep growth: also measured in Mtb hypoxia rep; calls as there; growth inhibition, %; measured here: M. tuberculosis growth (absorbance);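 0% = vehicle and 100% = reference antibiotic; read after six days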
# Starred values were filed as active, the others as inactive; ? = inconclusive; . = not tested or not shown.
item	Structure	ugtP null kill	PrP 5UTR inh	RN4220 kill	Bead autofluor
1	O=C(CC(Sc1ccc(Br)cc1)C(=O)O)c1ccc(F)cc1 (stereo not drawn)	92*	.	43	2965
2	O=C(O)c1ccc(/C=N/n2cc(-c3ccccc3)[nH]c2=S)cc1	.	-45	.	4306
3	Cc1ccc(-c2nnc(SCC(=O)Nc3ccccc3N3CCOCC3)o2)cc1	-1	-76	-0.1	5370
4	COc1ccc(C2C(C(=O)Nc3cc(OC)c(OC)c(OC)c3)c3ccccc3C(=O)N2C)cc1OC (stereo not drawn)	8	-2	5.3	3172
5	CSc1nnc(-c2ccncc2)n1CCCN1CCCC1=O	4	-2	2.0	16697*
6	CC(=NNc1cccc(C(=O)O)c1)c1ccc(Cl)s1	10	.	2.2	.
7	O=C(NCc1n[nH]c(=S)n1-c1ccc(Br)cc1)c1ccc(S(=O)(=O)N2CCCC2)cc1	-4	-30	-2.1	2685
8	Cc1ccc(CN2CCN(Cc3cnn(-c4ccc(Cl)cc4)c3)CC2CCO)o1 (stereo not drawn)	8	-22	11	3632
9	CC1=C(C(=O)Nc2ccccc2Cl)C(c2ccc(N(C)C)cc2)NC(=O)N1 (stereo not drawn)	7	-4	17	3846
10	Cc1nn(C)c(Cl)c1NC(=O)OCc1ccccc1	-12	-29	3.0	8303
11	COc1cccc(COCC(O)CN2CCC(C(N)=O)CC2)c1 (stereo not drawn)	3	-10	5.6	6285
12	Cc1ccc2sc(NC(=O)CN3C(=O)CCC3=O)nc2c1C	5	-16	-2.1	4584
13	Cc1ccc([N+](=O)[O-])cc1NC(=O)c1cccnc1	12	11	-8.1	3019
14	CCc1cc(C(=O)c2ccc(OC)cc2)c(NC(=O)COCC(=O)O)s1	-9	-39	0.9	3988
15	O=C(CN1C(=O)CSc2ncccc21)NCCN1CCOCC1	4	-37	-0.4	3876

item	BJeLR viability	Mtb hypoxia rep	Mtb hypoxia rep growth
1	-7	11	-1
2	6	.	.
3	-13	17	15
4	.	-9	-3
5	6	2	9
6	.	6	5
7	2	-3	-2
8	11	-6	3
9	-4	5	2
10	0	13	10
11	-11	12	1
12	9	1	14
13	2	6	10
14	-5	-13	-1
15	-2	.	.

# Other compounds
item	Structure	ugtP null kill	PrP 5UTR inh	RN4220 kill	Bead autofluor
16	CC1CCCC(C)N1C(=O)CN1CCN(c2nc(-c3ccc(F)cc3)cs2)CC1 (stereo not drawn)	-19	-6	-5.1	10073
17	Cc1ccccc1NC(=O)c1ccccc1NC(=O)c1ccccc1F	10	-17	4.5	3864
18	COC(=O)c1cc(Cl)c(NC(=O)c2ccc(F)cc2)cc1OC	6	-10	5.9	2133
19	Cc1nc2cc(C(F)(F)F)ccc2n1C1CCN(CC(=O)NC(C)(C)C)CC1	0	-21	4.6	4154
20	Cc1ccc(C)c2[nH]c(=O)c(C(c3nnnn3Cc3ccccc3)N3CCc4ccccc4C3)cc12 (stereo not drawn)	-13	-19	3.7	22367*
21	O=C(C(=O)N1CCOCC1)c1c[nH]c2ccccc12	-6	-11	3.0	3260
22	Cn1cnnc1SCC(=O)Nc1ccc(OCc2ccccc2)cc1	13	-51	5.6	3874
23	Cc1cccc(C(=O)NC(=S)NNC(=O)c2cccs2)c1	19	-13	53	3085
24	CCOc1ccc(-n2c(=O)c3c(C)c(C)sc3n(CC(=O)NCc3ccco3)c2=O)cc1	-4	-20	5.5	10995
25	COc1cccc(C(=O)N2CCOCC2)c1	10	-14	4.4	4310
26	O=C(NN=C(c1ccccc1)c1ccccn1)c1cccc([N+](=O)[O-])c1	-1	.	-4.5	.
27	CC(C)CC(=O)Nc1ccc2nn(-c3ccccc3)nc2c1	7	-79	6.3	2638
28	O=C(CSc1nc2ccccc2o1)Nc1nc(-c2ccccc2)cs1	9	-21	0.0	2408
29	O=C1C2CCCN2C(c2ccc(Br)cc2)N1c1ccc(F)cc1 (stereo not drawn)	8	-7	-0.9	7060
30	Cc1ccc(P(C)(=O)c2ccc(C)cc2)cc1	0	-2	5.2	?

item	BJeLR viability	Mtb hypoxia rep	Mtb hypoxia rep growth
16	6	-4	-9
17	-3	-1	6
18	-5	17	3
19	6	14	18
20	-10	-6	2
21	9	6	13
22	-1	13	9
23	8	-6	-8
24	.	0	1
25	-8	5	11
26	.	-1	6
27	-5	7	8
28	-13	4	5
29	2	.	.
30	3	5	4

# Next part, overlapping the part above by 2 compounds.
item	Structure	ugtP null kill	PrP 5UTR inh	RN4220 kill	Bead autofluor
29	O=C1C2CCCN2C(c2ccc(Br)cc2)N1c1ccc(F)cc1 (stereo not drawn)	8	-7	-0.9	7060
30	Cc1ccc(P(C)(=O)c2ccc(C)cc2)cc1	0	-2	5.2	?
31	O=C1NC2=C(C(=O)CCC2)C(c2ccccc2)N1 (stereo not drawn)	7	-15	3.6	3432
32	COc1ccc(NC(=O)c2ccc(-n3cncn3)c([N+](=O)[O-])c2)cc1OC	11	-16	2.5	?
33	CCOC(=O)c1cc(C#N)c(Oc2ccc(F)cc2)nc1-c1ccccc1	22	-25	-9.8	4279
34	CCN(C(=O)CSc1ncnc2c1cnn2-c1ccccc1)C1CCS(=O)(=O)C1 (stereo not drawn)	13	4	7.5	?
35	O=C(c1cc(-c2ccccc2Cl)nc2ccccc12)N1CCN(c2ccccc2O)CC1	-8	-11	-2.0	5137
36	O=C(Nc1ccc(N2CCOCC2)cc1)C1CC1	1	-20	5.0	9588
37	O=c1cc(O)c2sc3nc(-c4ccccc4)cc(C(F)(F)F)c3c2[nH]1	5	-18	9.6	2116
38	C#CCn1ccc(O)c(Cc2ccccc2)c1=O	8	-15	3.8	3668
39	COc1ccc(N2CCN(C(=O)c3ccc(CS(=O)(=O)c4ccccc4C)o3)CC2)cc1	-2	-12	3.3	7083
40	CCCc1cc(Nc2ccccc2OCC)n2ncnc2n1	4	-6	0.6	2413
41	COc1ccc(C(=O)Nc2ccccc2C(=O)NCc2cccnc2)cc1OC	3	-6	0.9	5970
42	Cc1ccc(S(=O)(=O)c2nnn3c2nc(N2CCOCC2)c2ccccc23)cc1	5	12	1.8	4412
43	CC1CCN(c2ccc3nnc(CCC(=O)NCc4ccco4)n3n2)CC1	0	-2	3.7	6200
44	CCc1nnc(NC(=O)Nc2ccc(Cl)cc2)s1	4	-49	4.3	4145
45	Cc1oc(-c2nc3ccccc3n2C)cc1C(=O)c1ccccc1	-3	-30	1.6	4788

item	BJeLR viability	Mtb hypoxia rep	Mtb hypoxia rep growth
29	2	.	.
30	3	5	4
31	1	0	1
32	2	-4	-3
33	4	.	.
34	1	-9	-9
35	10	1	13
36	6	7	-1
37	-7	3	0
38	-9	11	13
39	4	-3	-1
40	-3	.	.
41	1	-1	4
42	2	3	9
43	3	9	-3
44	-1	6	5
45	15	.	.

# Going on with the list:
item	Structure	ugtP null kill	PrP 5UTR inh	RN4220 kill	Bead autofluor
46	Cc1n[nH]c(C)c1S(=O)(=O)N1CCc2ccccc21	-2	-11	-0.8	3652
47	Cn1cnnc1Sc1nc2c(c(=O)n(C)c(=O)n2C)n1C	-1	.	6.5	.
48	COc1cc(NC(=O)c2ccc(OC)c([N+](=O)[O-])c2)ccc1NC(=O)c1cccs1	-2	5	2.8	10857
49	On1nnc2ccc3ccccc3c21	1	-23	4.7	9336
50	COc1cccc(CC(=O)OC(C)C(=O)NCc2ccc3c(c2)OCO3)c1 (stereo not drawn)	7	-18	4.2	5236
51	CC(C)c1[nH]nc2c1C(c1cccs1)C(C#N)=C(N)O2 (stereo not drawn)	5	-10	-1.2	20949*
52	Clc1ccc(-c2nnc3n2CCCC3)cc1	-5	-6	2.4	21835*
53	O=C(NCc1ccccc1)c1ccc2nc(-c3ccco3)c(-c3ccco3)nc2c1	-8	4	17	3120
54	CCCCN(C(=O)c1cc2c(s1)CCC2)c1c(N)n(CCCC)c(=O)[nH]c1=O	10	-17	-0.2	5395
55	CO/N=C(\c1nonc1N)N1CCN(c2ccc([N+](=O)[O-])cc2Cl)CC1	.	-25	.	8999
56	CCOC(=O)c1c[nH]c2c(Cl)ccc(Cl)c2c1=O	-13	1	0.1	2225
57	NS(=O)(=O)c1ccc(NNC(=O)c2ccc(F)cc2F)cc1	6	-18	1.1	3794
58	CCCCCCCCCCCCN1[C@@H](CC(=O)OC)c2cc(F)cc(F)c2S1(=O)=O	.	-18	.	3108
59	CCOc1ccc(-c2cc(C(=O)NN=C3CCN(C)CC3)[nH]n2)cc1	5	-12	-0.1	2177
60	Cc1ccc(NC(=O)CSc2nnc(COc3ccccc3F)n2N)cc1S(=O)(=O)N1CCOCC1	-1	-9	1.9	8560

item	BJeLR viability	Mtb hypoxia rep	Mtb hypoxia rep growth
46	3	11	0
47	5	10	0
48	-4	0	-6
49	7	-2	1
50	-7	3	3
51	-6	4	5
52	-8	1	10
53	-3	.	.
54	-5	5	-1
55	-2	.	.
56	7	.	.
57	2	1	-1
58	14	.	.
59	0	12	3
60	.	5	26

# Additional results:
item	Structure	ugtP null kill	PrP 5UTR inh	RN4220 kill	Bead autofluor
61	O=C(O)c1c(C(=O)N2N=C3/C(=C/c4ccccc4)CCCC3C2c2ccccc2)cccc1[N+](=O)[O-] (stereo not drawn)	4	40	0.6	3174
62	CC(=O)NC(Cc1ccc(C)cc1)C(=O)NC1CCN(C(=O)c2ccc([N+](=O)[O-])cc2)CC1 (stereo not drawn)	-3	-9	4.6	1924
63	COCCCn1c(=S)[nH]c2ccc(N3CCOCC3)cc2c1=O	-2	-14	5.5	18662*
64	CN(C)CCNCCCOc1ccccc1-c1ccccc1	3	.	6.0	.
65	CCN(CC)CCn1c(NCc2ccc(C)o2)nc2ccccc21	1	-4	2.9	3328
66	Cc1cc(-c2ccc(Cl)cc2Cl)c(C#N)c(=O)[nH]1	-4	29	4.2	5429
67	N#CC(C(=O)NC1CC1)c1nc2ccccc2nc1N1CCN(C/C=C/c2ccccc2)CC1 (stereo not drawn)	4	-19	2.2	3254
68	COc1ccc(Cc2nc3ccc(C(=O)NCCSC)cc3o2)cc1	.	-50	.	3779
69	CCc1ccc2[nH]c(=O)c(C(c3nnnn3Cc3ccc(OC)cc3)N3CCOCC3)cc2c1 (stereo not drawn)	7	3	3.6	16212*
70	C[C@]12CCC3C(CCC4=CC(O)CC[C@@]43/C=N/O)C1(O)CCC2C1=CC(=O)OC1 (stereo partly drawn)	.	80*	.	2871
71	FC(F)(F)c1cc(NC2CCCCC2)ccn1	3	-7	3.8	3632
72	CC(=O)Nc1ccc(S(=O)(=O)Oc2ccc(C=O)cc2)cc1	-5	-13	3.7	2011
73	CN(C)c1cc[n+](/C(C(=S)Nc2ccc(SC(F)F)cc2)=C(/[O-])c2ccccc2)cc1	0	-24	1.1	4533
74	CC(C)c1ccc(C2(C)NC(=O)N(CC(=O)NCC3COc4ccccc4O3)C2=O)cc1 (stereo not drawn)	-4	-21	-6.9	8740
75	COc1cccc(CN2CCNC(=O)C2CC(=O)NC2Cc3ccccc3C2)c1 (stereo not drawn)	-1	-16	2.1	2951
76	Cc1ccc2occ(C=NNC(=O)c3ccncc3)c(=O)c2c1	-6	.	5.4	.

item	BJeLR viability	Mtb hypoxia rep	Mtb hypoxia rep growth
61	-2	8	8
62	1	3	6
63	-17	4	8
64	-11	15	15
65	8	4	8
66	-5	14	12
67	-2	.	.
68	-10	.	.
69	-3	6	1
70	69*	.	.
71	-6	9	2
72	-8	-4	5
73	17	11	7
74	.	8	8
75	-9	2	11
76	.	.	.

# Ordered by formula weight (falling): part of the list above
item	Structure	ugtP null kill	PrP 5UTR inh	RN4220 kill	Bead autofluor
61	O=C(O)c1c(C(=O)N2N=C3/C(=C/c4ccccc4)CCCC3C2c2ccccc2)cccc1[N+](=O)[O-] (stereo not drawn)	4	40	0.6	3174
73	CN(C)c1cc[n+](/C(C(=S)Nc2ccc(SC(F)F)cc2)=C(/[O-])c2ccccc2)cc1	0	-24	1.1	4533
67	N#CC(C(=O)NC1CC1)c1nc2ccccc2nc1N1CCN(C/C=C/c2ccccc2)CC1 (stereo not drawn)	4	-19	2.2	3254
74	CC(C)c1ccc(C2(C)NC(=O)N(CC(=O)NCC3COc4ccccc4O3)C2=O)cc1 (stereo not drawn)	-4	-21	-6.9	8740
68	COc1ccc(Cc2nc3ccc(C(=O)NCCSC)cc3o2)cc1	.	-50	.	3779

item	BJeLR viability	Mtb hypoxia rep	Mtb hypoxia rep growth
61	-2	8	8
73	17	11	7
67	-2	.	.
74	.	8	8
68	-10	.	.
